Mtb bLac sens: beta-lactam sensitization of Mtb H37Rv; M. tuberculosis H37Rv growth with meropenem, percent inhibition; hits of this screen are not shown here; inhibition, % at 25 µM; 330,000 tested, 0.27% active;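 active = about 74% or more and at least 40 points above the plate without the antibiotic, then above 30% in a dose series; inconclusive = first-round hits that could not be retested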;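 also: growth measured after seven days incubation then overnight dye step; 0% = bacteria only wells and 100% = bacteria with antibiotic; twin plates without the antibiotic show which effects depend on it; some results filed as inactive read as strong as hits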
YopH PTP inh: blocks Yersinia enterocolitica YopH tyrosine phosphatase; 140,000 tested, 0.16% active; inhibition, %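 (about 10 µM by stock and volumes)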; fluorescence Ex485/Em525;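 active = inhibition of 50% or more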;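 also: controls were vehicle for no effect and minimum signal wells for full effect; inactives centre near -20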
Mtb growth: M. tuberculosis H37Rv growth inhibitors, H37Rv strain (AID 1626) | M. tuberculosis H37Rv growth inhibition; higher % means a stronger effect | inhibition, % at 10 µM; hits with a dose series show IC50 in µM | 220,000 tested, 0.95% active;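 active = confirmed in a dose series; inconclusive = inhibition above 80% but not taken into the dose series; inactive = below 80% or under 30% at every dose of the series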;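 also: bacteria incubated seven days before Alamar blue readout; 0% = bacteria only wells and 100% = bacteria with antibiotic wells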
Arbovirus anti: arbovirus infection inhibition; arbovirus infection cell-based antiviral screen; inhibition, % at 10 µM; 200,000 tested, 0.37% active;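 active = inhibition from about 30%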;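 also: bluetongue infection of BSR cells; cell survival read as ATP light after 72 h; 0% = infected wells without compound and 100% = uninfected wells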
RecA splice inh: inhibitors of M. tuberculosis RecA intein splicing. AID 2221. 290,000 tested, 0.75% active. cell-free RecA intein splicing, fluorescence. P9WHJ3. inhibition, %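 (about 9 µM by stock and volumes)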; in the data active = inhibition above about 30%; inconclusive = no clear call, values can overlap the other calls;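 also: 0% = vehicle wells and 100% = reference inhibitor control wells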
Target sequence (P9WHJ3 whole entry, looked up, canonical isoform): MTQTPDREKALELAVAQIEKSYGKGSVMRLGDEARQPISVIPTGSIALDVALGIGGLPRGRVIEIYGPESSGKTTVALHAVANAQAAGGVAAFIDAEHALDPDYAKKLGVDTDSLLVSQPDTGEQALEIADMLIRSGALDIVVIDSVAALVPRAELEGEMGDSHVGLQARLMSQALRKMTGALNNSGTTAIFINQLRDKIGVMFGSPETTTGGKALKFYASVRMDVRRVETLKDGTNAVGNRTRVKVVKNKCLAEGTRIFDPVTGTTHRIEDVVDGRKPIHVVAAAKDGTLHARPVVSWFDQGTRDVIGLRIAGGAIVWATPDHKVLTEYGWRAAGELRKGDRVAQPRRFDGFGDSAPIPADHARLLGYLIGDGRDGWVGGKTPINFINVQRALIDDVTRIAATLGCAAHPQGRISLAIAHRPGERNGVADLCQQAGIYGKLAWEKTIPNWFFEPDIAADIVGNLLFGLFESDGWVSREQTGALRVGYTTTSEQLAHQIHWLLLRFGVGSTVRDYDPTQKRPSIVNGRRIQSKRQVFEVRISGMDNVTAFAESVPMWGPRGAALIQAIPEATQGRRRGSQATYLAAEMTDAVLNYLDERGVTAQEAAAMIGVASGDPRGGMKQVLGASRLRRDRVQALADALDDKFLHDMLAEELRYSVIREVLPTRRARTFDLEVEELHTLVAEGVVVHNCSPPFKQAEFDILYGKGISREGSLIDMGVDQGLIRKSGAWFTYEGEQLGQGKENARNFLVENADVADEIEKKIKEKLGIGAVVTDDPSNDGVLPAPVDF
Arbovirus anti repeat: second read-out of Arbovirus anti, no call of its own (marks repeat the call); inhibition, %; measured here: 10K subset replicate screen; many hits read low in the repeat;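 first of two repeat runs on a subset; 0% = infected and 100% = uninfected wells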
* hit, by the source's call; u = inconclusive; x = no result given; & = joins results of further samples. An excerpt; count on the stated rates, not on these rows.

SMILES	Mtb bLac sens	YopH PTP inh	Mtb growth	Arbovirus anti	RecA splice inh	others
O=C(c1ccccc1)N1CCN(c2ncccn2)CC1	-2	x	x	x	0.8
Cc1cc(C)c2c(-n3cccc3)n[nH]c2n1	-9	-36	6%	7	8.7
O=c1[nH]cnc2c1ncn2[C@H]1CC[C@@H](CO)O1	-4	x	0%&1%	3	7.6
Cc1nnc(N/N=C\c2ccc(-c3cccc(C(=O)O)c3)o2)n1N	1	x	-1%	-4	-7.6
CCOC(=O)C1CCCN(C(=O)c2cccc3ccccc23)C1 (centres undefined)	3	x	x	x	1.1
COc1ccc(C)c2sc(NC(=O)C3CC3)nc12	1	x	x	x	0.5
CCc1nnc(NS(=O)(=O)c2ccc(NC(=O)/C=C/c3ccccc3Cl)cc2)s1	-4	x	5%	12	9.1
Cc1ccc(C(=O)Nc2ccc3c(c2)nc(CCNC(=O)c2ccco2)n3C)cc1	-4	x	x	x	-0.1
O=C(Cn1cc(C(F)(F)F)ccc1=O)Nc1cc(S(=O)(=O)N2CCOCC2)ccc1Cl	-12	-26	3%	3	-0.4
COc1ccc(S(=O)(=O)Nc2ncccn2)cc1	-10	x	x	x	0.1
Cc1ccc(S(=O)(=O)NC(C)C(=O)NC2CC2)cc1 (centres undefined)	3	x	x	x	3.6
CC(C)c1nc(CNC(=O)CCc2nnc(-c3ccsc3)o2)cs1	10	x	2%	3	3.5
O=C1C=C(NC2=CC3OC(c4ccccc4)OCC3OC2=O)CCC1 (centres undefined)	-4	-7	1%	7	2.8
Cc1cccc(C)c1NC(=O)C(=O)NCc1ccccn1	9	-29	-2%	5	-0.4
COc1ccc2nc(NC(=O)c3ccccc3O)sc2c1	5	x	x	x	-2.7
CCC(C)[C@H](NC(=O)N1CCCCCC1)C(=O)O (some centres undefined)	-3	x	-8%	x	1.2
CC(=O)c1cccc(N2C(=NC(=O)C(C)C)SC3CS(=O)(=O)CC32)c1 (centres undefined)	-6	-28	-7%	2	1.4
CC1CCCN(S(=O)(=O)c2ccc(C(=O)Nc3nnc(-c4ccccn4)o3)cc2)C1 (centres undefined)	43	x	-8%	2	1.4
O=C(c1ccc(Cl)cc1)N1CCc2ccccc21	4	x	x	x	17
O=C(CN1CCN(c2ccccc2)CC1)Nc1ccc(F)cc1	2	x	x	x	-0.5
CCOC(=O)N1CCN(C(=O)c2cccc(OC)c2OC)CC1	-9	-19	2%	8	-0.7
CC1(C)Oc2ccc(C(=O)N3CCCCC3)cc2N(CC(=O)NCc2ccccc2)C1=O	-4	-52	7%	-3	-0.8
COC(=O)C1(Cc2cc(-c3cccnc3)no2)CCN(C(=O)OC(C)(C)C)CC1	9	x	x	x	3.2
CC(O)CNc1nc2c(c(=O)n(Cc3ccc(Cl)c(Cl)c3)c(=O)n2C)n1C (centres undefined)	6	x	-2%	x	-2.5
COc1cccc(C2C(C(=O)c3cc4ccccc4o3)=C(O)C(=O)N2CCN(C)C)c1OC (centres undefined)	6	-108	-18%	x	-0.4

18 compounds from above, arranged by formula weight, falling.
SMILES	Mtb bLac sens	YopH PTP inh	Mtb growth	Arbovirus anti	RecA splice inh	others
COc1cccc(C2C(C(=O)c3cc4ccccc4o3)=C(O)C(=O)N2CCN(C)C)c1OC (centres undefined)	6	-108	-18%	x	-0.4
CCc1nnc(NS(=O)(=O)c2ccc(NC(=O)/C=C/c3ccccc3Cl)cc2)s1	-4	x	5%	12	9.1
CC1(C)Oc2ccc(C(=O)N3CCCCC3)cc2N(CC(=O)NCc2ccccc2)C1=O	-4	-52	7%	-3	-0.8
CC1CCCN(S(=O)(=O)c2ccc(C(=O)Nc3nnc(-c4ccccn4)o3)cc2)C1 (centres undefined)	43	x	-8%	2	1.4
CC(O)CNc1nc2c(c(=O)n(Cc3ccc(Cl)c(Cl)c3)c(=O)n2C)n1C (centres undefined)	6	x	-2%	x	-2.5
COC(=O)C1(Cc2cc(-c3cccnc3)no2)CCN(C(=O)OC(C)(C)C)CC1	9	x	x	x	3.2
CC(=O)c1cccc(N2C(=NC(=O)C(C)C)SC3CS(=O)(=O)CC32)c1 (centres undefined)	-6	-28	-7%	2	1.4
CC(C)c1nc(CNC(=O)CCc2nnc(-c3ccsc3)o2)cs1	10	x	2%	3	3.5
Cc1nnc(N/N=C\c2ccc(-c3cccc(C(=O)O)c3)o2)n1N	1	x	-1%	-4	-7.6
CCOC(=O)C1CCCN(C(=O)c2cccc3ccccc23)C1 (centres undefined)	3	x	x	x	1.1
COc1ccc2nc(NC(=O)c3ccccc3O)sc2c1	5	x	x	x	-2.7
Cc1cccc(C)c1NC(=O)C(=O)NCc1ccccn1	9	-29	-2%	5	-0.4
Cc1ccc(S(=O)(=O)NC(C)C(=O)NC2CC2)cc1 (centres undefined)	3	x	x	x	3.6
O=C(c1ccccc1)N1CCN(c2ncccn2)CC1	-2	x	x	x	0.8
COc1ccc(S(=O)(=O)Nc2ncccn2)cc1	-10	x	x	x	0.1
COc1ccc(C)c2sc(NC(=O)C3CC3)nc12	1	x	x	x	0.5
O=C(c1ccc(Cl)cc1)N1CCc2ccccc21	4	x	x	x	17
Cc1cc(C)c2c(-n3cccc3)n[nH]c2n1	-9	-36	6%	7	8.7

Next part.
SMILES	Mtb bLac sens	YopH PTP inh	Mtb growth	Arbovirus anti	RecA splice inh	others
Cc1ccc(-n2nnnc2SCC(N)=O)c(C)c1	-3	40	3%	11	0.8
Cc1nc2ccc(Oc3ccccc3)cc2s1	5	x	x	x	-1.3
CC(=O)Oc1ccc(C(=O)Cc2ccccn2)c(O)c1	1	8	2%	4	1.2
O=C(CCNS(=O)(=O)c1ccc2c(c1)CCC(=O)N2)Nc1ccc2c(c1)OCCO2	0	-35	-6%	5	x
CCSc1nc2c(cnn2-c2ccc(C)cc2)c(=O)[nH]1	11	-22	8%	15	-1.5
C#CCOCCOCCOCCNc1nc(N2CCN(C(=O)[C@H](C(C)C)n3cc(CCO)nn3)CC2)nc(N2CCN(C(=O)[C@H]([C@@H](C)CC)n3cc(CCCN=C(N)N)nn3)CC2)n1	-5	18	-2%	2	-4.6
COc1ccc(OC)c(C(=O)c2ccc(C(=O)O)cc2)c1	u	-20	0%	12	-1.8	Arbovirus anti repeat=6
COC(=O)c1sc(NC(=O)C2CCCCC2C(=O)O)c(C(=O)OC)c1C (centres undefined)	-9	-25	2%	0	1.0	Arbovirus anti repeat=3
CCSc1nnc(NC(=O)CSc2nccn2-c2cccc(C)c2C)s1	89	-27	31%	21	4.1
O=C(NCCc1ccccc1)/C(=C\c1ccccc1)NC(=O)c1ccco1	-22	x	x	x	-3.7
COc1ccccc1CNC(=O)COC(=O)c1cc([N+](=O)[O-])ccc1N1CCOCC1	-1	x	x	x	-6.0
O=C(CCN1C(=O)C2C3C=CC(C3)C2C1=O)Nc1c(F)cc(F)cc1Br (centres undefined)	-4	11	-1%	4	0.8
CC(OC(=O)c1cccs1)C(=O)NCc1ccc2c(c1)OCO2 (centres undefined)	u	-35	-13%	3	-1.3
COc1ccc(N(CC(=O)NC(C)c2ccccc2)S(=O)(=O)c2ccc(C)cc2)cc1 (centres undefined)	1	x	x	x	0.2
COCC(=O)Nc1nnc(Cc2ccc(OC)c(OC)c2)s1	-5	-41	-1%	7	0.2
Cc1cc(NC(=O)COC(=O)C2=COCCO2)c([N+](=O)[O-])cc1C	91	x	u	0	0.1
O=C(COC(=O)/C=C/c1ccc(OC(F)F)cc1)Nc1ccc(S(=O)(=O)N2CCCC2)cc1	4	-23	8%	8	2.3
Cc1cc(Cl)ccc1-n1c(-c2cccnc2)n[nH]c1=S	-6	x	6%	x	-2.8
Cc1nc(-c2cccc(NC(=O)c3ccco3)c2)cs1	-6	x	x	x	-0.2
COc1ccc(O)c(C(=O)c2cnn(C(=O)c3cccc(S(=O)(=O)N4CCOCC4)c3)c2)c1	-5	x	6%	-3	-4.6
Cn1cnnc1SCC(=O)Nc1ccc(Cl)cn1	0	x	7%	6	-1.6
CCN(CC)S(=O)(=O)c1ccc2c3c(cccc13)C(=O)S2	-9	-12	5%	21	3.8
CCn1c(SCC(=O)Nc2cccc(C)c2)nc2c(c1=O)SC(C)C2 (centres undefined)	-2	-2	0%	3	2.2	Arbovirus anti repeat=2
COC(=O)C(C)Oc1ccc2c(c1)O/C(=C\c1cccc(Br)c1)C2=O (centres undefined)	92	x	x	x	1.0
Cc1nc2ccccc2n1CC(=O)N/N=C\C=C\c1ccccc1	-1	-37	-3%	2	-1.0

The listing continues.
SMILES	Mtb bLac sens	YopH PTP inh	Mtb growth	Arbovirus anti	RecA splice inh	others
O=C1/C(=C/c2cccs2)SC(=S)N1CCCC(=O)N(CCO)c1ccccc1	-2	x	x	x	0.7
Cc1ccc(N(CC(=O)NC(C)(C)C)C(=O)CS(=O)CC(=O)Nc2ccc(F)cc2)cc1 (centres undefined)	3	x	-7%	2	2.6
N#Cc1c(SCC(=O)Nc2nccs2)nc2c(c1-c1ccco1)CCCC2	1	7	15%	-1	0.2
CCCCN1C(=O)c2ccc(C(=O)Nc3cccnc3)cc2C1=O	77	3	64%	1	2.6
CC(=O)C(Sc1ncnc2c1nnn2-c1ccc(F)cc1)C(=O)N(C)C (centres undefined)	0	45	-7%	-14	40*
CCOC(=O)c1c(C)[nH]c(C(=O)CN2CC(C)OC(C)C2)c1C (centres undefined)	3	-34	-16%	-1	-6.0
COc1cccc(CNc2nccs2)c1O	-2	x	x	x	-5.6
C=CCn1c(SCC(=O)N(CCO)CCO)nc2sc3c(c2c1=O)CCC3	4	x	x	x	-0.6
CC(C)S(=O)(=O)C1=NSC2=NC(=O)/C(=C\c3ccc(-c4cccc(C(=O)O)c4)o3)C(=N)N21	x	x	-9%	30*	x
CCCOc1ccc(CN2CCOCC2)cc1OC	-7	x	3%	x	-1.5
COc1ccc(NC(=O)CN2C(=O)CC(C)(C)S(=O)(=O)c3ccccc32)cc1	3	-34	5%	-3	5.0	Arbovirus anti repeat=5
S=c1[nH]nc2c3c4c(sc3ncn12)CCCC4	-1	-22	5%	2	-3.4
COC(=O)C1=C(C)OC(N)=C(C#N)C1c1cc2cccc(C)c2nc1Cl (centres undefined)	-5	x	-8%	-1	-3.8
CC1(C)C(C=C(Cl)Cl)C1C(=O)Nc1ccc([N+](=O)[O-])cc1 (centres undefined)	35	-22	28%	-35	x
C=CCn1c(C(C)NC(=O)CC)nc2ccccc21 (centres undefined)	-6	29	-8%	4	1.1
OC(COc1ccccc1CNCc1cccnc1)CN1CCc2ccccc2C1 (centres undefined)	-4	x	-3%	-6	1.3
CCOC(=O)c1[nH]c(C)c(C(=O)Nc2ccc(C)c(C)c2)c1C	0	-43	0%	-4	1.3	Arbovirus anti repeat=-8
Cc1cc(C)c2c(CC(=O)NCc3ccco3)coc2c1	-25	-2	-5%	1	0.3
CCOC(=O)c1ccc(NC(=S)N2CCC(O)CC2)cc1	-5	-20	u	-3	-2.6
COc1nc(N(C#N)CC(N)=O)nc(N2CCCC2)n1	u	-35	-7%	1	0.0
Cc1oc2cc(O)cc(O)c2c(=O)c1-c1ccc2c(c1)OCCCO2	5	-53	8%	6	1.3
Cc1ccc(Nc2nc(C)cc(C)c2C(N)=O)cc1	-3	-3	-16%	4	0.2
O=C(C1=C(O)C(=O)N(CC2CCCO2)C1c1cccc(Cl)c1)c1ccco1 (centres undefined)	10	x	x	x	2.4
CSCC[C@H](NS(=O)(=O)c1ccc(C)cc1)C(=O)N1CCC(C(=O)N[C@@H](Cc2ccc(O)cc2)C(=O)O)CC1	-8	x	x	x	0.4
CCCCC(=O)Nc1nnc(SCC(=O)NCC2CCCO2)s1 (centres undefined)	-5	x	x	x	-1.6

The results go on:
SMILES	Mtb bLac sens	YopH PTP inh	Mtb growth	Arbovirus anti	RecA splice inh	others
FC(F)(F)c1ccc(C2[C@H]3CN(CC4CCCCC4)[C@H](c4ccccc4)C34CC2(c2cccnc2)C4)cc1 (some centres undefined)	59	x	20%	x	16
O=C(N/N=C/c1c(F)c(F)c(F)c(F)c1F)c1cc(-c2ccccc2)nc2ccccc12	3	x	x	x	0.8
CCCCN(C)C(=O)Cc1c(OC)ccc2cc(Br)ccc12	100	-29	u	-1	7.1
COC(=O)/C(=C/N(C)C)C(=O)N1CCN(c2ccc(Cl)c(Cl)c2)CC1	1	x	-10%	18	-0.5
O=C1CCCCC1C(Nc1ccc(Cl)cc1)c1ccccc1 (centres undefined)	20	-18	-10%	-13	9.7
CC(=O)N(Nc1ccccc1)c1ccccc1	6	x	x	x	-2.4
O=C(c1ccccc1)c1cncc(Br)c1	21	27	-1%	9	0.2
COc1ccc(NC(=O)C2CCCN2S(=O)(=O)c2cccs2)c([N+](=O)[O-])c1 (centres undefined)	-10	x	x	x	0.1

Source: PubChem
